TrxR1 inh – blocks rat thioredoxin reductase 1 | O89049 | recombinant rTrxR1, NADPH fluorescence consumption, selenite substrate | 390,000 tested, 1% active | Potency, µM (top dose mostly 114 µM), for the others: at the top dose activity change, negative = inhibition, actives largely listed as inhibitors | AID 588453; further: on the % scale 0 is the no-effect control and ±100 the full control effect; nearly all actives have a fitted effect of over 65% in size
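Rat TrxR1 (90 nM in the dispensed reagent) was pre-reduced with 400 uM NADPH for 5 min at room temperature, then incubated with compound for 15 min. After 400 uM selenite was added, NADPH fluorescence (Ex 340/Em 450 nm) was followed for 8 min.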
GLS inhibitor – blocks human kidney-isoform glutaminase activity. O94925. GLS enzymatic activity, qHTS titration. Potency, µM (top dose mostly 45.5 µM), for inactives: at the highest dose activity change, negative = inhibition, actives largely listed as inhibitors. 410,000 tested, 0.21% active. AID 624170; further: on the % scale 0 is the no-effect control and ±100 the full control effect
Target sequence (O94925 whole entry, looked up, canonical isoform): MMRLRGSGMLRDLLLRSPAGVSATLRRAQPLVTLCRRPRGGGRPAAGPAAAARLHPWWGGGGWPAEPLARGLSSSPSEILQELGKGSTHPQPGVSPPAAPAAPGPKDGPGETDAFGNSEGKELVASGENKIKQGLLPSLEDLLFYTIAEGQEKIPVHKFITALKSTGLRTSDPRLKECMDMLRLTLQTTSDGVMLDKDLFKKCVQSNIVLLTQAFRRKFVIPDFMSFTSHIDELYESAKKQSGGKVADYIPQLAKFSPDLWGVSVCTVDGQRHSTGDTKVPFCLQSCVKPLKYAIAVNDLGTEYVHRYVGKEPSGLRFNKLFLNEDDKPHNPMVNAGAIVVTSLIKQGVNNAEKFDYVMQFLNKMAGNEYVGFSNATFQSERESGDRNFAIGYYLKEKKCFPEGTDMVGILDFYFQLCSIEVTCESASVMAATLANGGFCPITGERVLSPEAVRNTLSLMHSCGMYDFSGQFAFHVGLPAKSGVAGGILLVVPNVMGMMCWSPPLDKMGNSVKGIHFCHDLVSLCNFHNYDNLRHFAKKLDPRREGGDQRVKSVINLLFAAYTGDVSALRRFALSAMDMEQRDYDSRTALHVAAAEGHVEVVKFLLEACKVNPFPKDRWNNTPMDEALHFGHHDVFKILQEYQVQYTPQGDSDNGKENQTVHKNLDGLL
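hKGA in 45 mM KH2PO4 (pH 8.2), 0.02% Tween-20 with compound, then 1mM L-Glutamine (stock as added) plus glutamate oxidase/HRP/Amplex red coupling mix. Fluorescence read initially and after 30 min at RT; signal change reflects glutamate formation.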
ERG Ets-DNA blk – ERG Ets/DNA interaction inhibition; fluorescence polarization, His-ERG Ets domain / labelled DNA; Potency, µM (highest dose often 76.9 µM), without a hit: at the highest dose FP activity, negative = inhibition, usual class: inhibitors; 370,000 tested, 0.028% active; P11308; active means well fitted inhibition curve with a large enough effect in the polarisation, with a control signal flat; inconclusive means small, poorly fitted or top-dose-only effect, or effect the other way, or a change in a side signal; inactive means no such curve, though single readings can be large or run the other way; the % refers to the polarisation;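 further: polarization taken with two DNA probes labelled with fluorescein and Texas red; % of control where 0% means no effect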
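His-tagged ERG Ets domain (1 uM in the protein solution; 300mM KCl, 50mM Tris-HCl, 1mM EDTA, 1mM DTT, pH 7.5) received compound, then a probe mix of 5 nM fluorescein-DNA and 100nM Texas-615-DNA. Fluorescence polarization was read for both dyes.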
RGS4 inhibitor – inhibitors of human regulator of G protein signaling 4; Transcreener GDP fluorescence polarization, RGS4-accelerated GTP hydrolysis; P49798; AID 504845; Potency, µM (top dose mostly 114 µM), inactives show at the top dose activity change, negative = inhibition, actives largely listed as inhibitors; 390,000 tested, 0.039% active; further: on the % scale 0 is the no-effect control and ±100 the full control effect; nearly all actives have a fitted effect of over 75% in size; some results filed as inactive show a strong effect at the top dose
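MLSMR compounds (23 nl, pin-transferred) preincubated 10 min at room temperature with a 500nM (2x) first reagent, then RGS4 at 900nM (2x) plus Transcreener GDP mix added; fluorescence polarization (620/688 nm) read before and after 90 min at 30 °C.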
Pin1 inhibitor – inhibitors of human Pin1; Q13526; Pin1 FP peptide displacement, HiFluor488, 10 min; Potency, µM (series often up to 115 µM), for the others: at the highest dose activity, negative = inhibition, usual class: inhibitors; 390,000 tested, 0.009% active; active means well fitted inhibition curve with a large enough effect in the polarisation, with a control signal flat, not every such curve was filed as active; inconclusive means small, poorly fitted or top-dose-only effect, or effect the other way, or a change in a side signal; inactive means no such curve, though single readings can be large or run the other way; the % refers to the polarisation; further: on the % scale 0 is the no-effect control and ±100 the full control effect
Numbers without * were called inactive; i = inactive; ? = inconclusive; nt = not tested or not shown; & = joins results of further samples; [ ] = another dose, or the depositor's remark. Unless noted, the call rests on the fitted dose curve; in most records, active means well fitted curve in the direction sought with a large enough effect; inconclusive means small, poorly fitted or top-dose-only effect, or another doubt; inactive means no such curve, though single readings can be large; an effect the other way counts as inactive or inconclusive. Potency means the concentration at half of the fitted maximal effect. The list is partial; count on the stated rates, not on these rows.

nr | structure | TrxR1 inh | GLS inhibitor | ERG Ets-DNA blk | RGS4 inhibitor | Pin1 inhibitor
1 | CN(C)CCCN1c2ccccc2Sc2ccc(C(F)(F)F)cc21 | ? | 22%&31% | 18% | 6%[56.9 µM] | -1%
2 | C=CCn1c(=S)[nH]c2scc(-c3ccco3)c2c1=O | 40µM* | -17% | 18% | ? | ?
3 | NCC(=O)O | nt | -5% | nt | i | nt
4 | C[N+]1(C)CCC(OC(=O)C(O)(c2ccccc2)C2CCCC2)C1 (stereo not given) | 17% | -10%&0% | -8% | 6% | 5%
5 | Cc1ccc(NC(=O)CN2C(=O)S/C(=C\c3ccc(OCC(=O)O)c(Br)c3)C2=O)cc1 | 4% | ? | 5% | -52% | ?
6 | N[C@@H](CC(=O)O)C(=O)O | -5%[57.1 µM] | nt | nt | -8%[56.9 µM] | nt
7 | CN(C)c1cccc(C(=O)OCc2cc(=O)oc3cc(O)ccc23)c1 | 8%[11.4 µM] | 65%[activator] | -6% | -42% | ?
8 | O=C(O)CC(O)(CC(=O)O)C(=O)O | 10% | 7%&-3% | -8% | -5% | -21%

Part of the list above in order of molecular weight, lowest first.
nr | structure | TrxR1 inh | GLS inhibitor | ERG Ets-DNA blk | RGS4 inhibitor | Pin1 inhibitor
3 | NCC(=O)O | nt | -5% | nt | i | nt
6 | N[C@@H](CC(=O)O)C(=O)O | -5%[57.1 µM] | nt | nt | -8%[56.9 µM] | nt
8 | O=C(O)CC(O)(CC(=O)O)C(=O)O | 10% | 7%&-3% | -8% | -5% | -21%
2 | C=CCn1c(=S)[nH]c2scc(-c3ccco3)c2c1=O | 40µM* | -17% | 18% | ? | ?
4 | C[N+]1(C)CCC(OC(=O)C(O)(c2ccccc2)C2CCCC2)C1 (stereo not given) | 17% | -10%&0% | -8% | 6% | 5%
7 | CN(C)c1cccc(C(=O)OCc2cc(=O)oc3cc(O)ccc23)c1 | 8%[11.4 µM] | 65%[activator] | -6% | -42% | ?
1 | CN(C)CCCN1c2ccccc2Sc2ccc(C(F)(F)F)cc21 | ? | 22%&31% | 18% | 6%[56.9 µM] | -1%
5 | Cc1ccc(NC(=O)CN2C(=O)S/C(=C\c3ccc(OCC(=O)O)c(Br)c3)C2=O)cc1 | 4% | ? | 5% | -52% | ?

Full records as entered above. Order of values: TrxR1 inh | GLS inhibitor | ERG Ets-DNA blk | RGS4 inhibitor | Pin1 inhibitor
C=CCn1c(=S)[nH]c2scc(-c3ccco3)c2c1=O reads 40µM* | -17% | 18% | ? | ?
NCC(=O)O reads nt | -5% | nt | i | nt

Screens from PubChem BioAssay.
